# MT1-MMP act inh = inhibitors of human MT1-MMP activation | AID 651647 | P50281 | GFP/RFP ratio change, % at 20 µM | HT1080 RFP-PRO-GFP cells, GFP/RFP ratio fluorescence, overnight; percent of plate control window, DMSO zero | hit rate 0.061% among 360,000;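 active = GFP/RFP ratio change of at least 30% with cell ATP level not reduced by more than half and red fluorescence within 50% of control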; note: strong numbers were not always called active
#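 Material: RFP-PRO-GFP reporter HT1080 cells. Dosing: single-point 20 µM compound, 1% DMSO. Controls: DMSO and RFP-L50D-GFP cell wells. Timing: cells overnight before dosing, compound overnight, 37 °C, 5% CO2. Measure: GFP/RFP fluorescence ratio.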
# Rce1 inh = blocks yeast Ras-converting enzyme; yeast membranes, quenched prenylated peptide cleavage fluorescence; calls only; hit rate 0.27% among 290,000; AID 2563;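 active = fall in fluorescence gain of 50% or more versus controls, with final raw signal at or below 3038400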;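 note: plate controls were neutral control wells for no effect and wells lacking membranes for full effect; tested at 10 µM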
# Target sequence (Q03530 whole entry, looked up): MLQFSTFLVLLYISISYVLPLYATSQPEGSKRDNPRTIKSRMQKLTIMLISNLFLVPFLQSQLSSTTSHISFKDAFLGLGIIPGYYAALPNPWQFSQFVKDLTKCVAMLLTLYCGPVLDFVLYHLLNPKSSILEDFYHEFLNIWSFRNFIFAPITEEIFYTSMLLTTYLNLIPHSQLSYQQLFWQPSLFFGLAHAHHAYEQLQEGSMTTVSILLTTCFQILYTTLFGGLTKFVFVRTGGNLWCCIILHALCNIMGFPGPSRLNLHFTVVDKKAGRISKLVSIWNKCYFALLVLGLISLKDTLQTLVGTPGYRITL
# CSC inhib = cancer stem cell inhibition; cancer stem cell-like cells viability, luminescence; inhibition, % at 7.5 µM; hit rate 1.1% among 300,000; AID 2717;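 active = mean at 75% or more and at least half the replicates too; tested in HMLE shEcad cells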;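 note: 0% = median of negative and 100% = median of positive control wells; the first replicate is given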
# PABP FP inh = PABP-poly(A) binding inhibition. AID 2014. inhibition, % at 35 µM. PABP-poly(A) RNA binding, fluorescence polarization. P11940. hit rate 1% among 290,000;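 active = 50% or more with normal probe brightness, or confirmed in later tests; about a fifth of its hits are not listed in these tables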;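 note: calls also rest on retests at 20 µM and on dose response follow-up; controls were probe without protein and protein plus probe with vehicle; some compounds called inactive have numbers as strong as hits; many hits fall short of the cut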
# HIV Env fusion = blocks HIV Env-driven cell-cell fusion; HeLa-JRFL Env/CEM21 cell fusion, luciferase; inhibition, % at 12.3 µM; hit rate 1.1% among 360,000; AID 651610;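 active = mean replicate inhibition score of at least 50 and every replicate individually at or above 50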;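 note: 0% = plate neutral controls and 100% = maraviroc near 300 nM; one replicate is shown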
# UUG fidelity = yeast start codon fidelity modulation. S. cerevisiae UUG-firefly luciferase reporter, luminescence/redox ratio. activity score, % at 18.7 µM. hit rate 0.13% among 350,000;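 active = replicate mean at a twofold rise or more, about +100% in these data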;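 note: firefly luciferase made from a UUG start codon reports start codon fidelity; reporter light over untreated wells divided by growth signal over untreated wells; some hits fall short of that in this replicate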
# eIF4H FP inh = inhibitors of RNA binding by human eIF4H; eIF4H fluorescence polarization binding assay; AID 2012; hit rate 0.94% among 290,000; inhibition, % at 35 µM;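 active = 50% or more with normal probe brightness, or confirmed in later tests; about a fifth of its hits are not listed in these tables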;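 note: calls also rest on retests at 20 µM and on dose response follow-up; 0% = protein and probe with vehicle and 100% = probe without protein; strong numbers were not always called active; many hits fall short of the cut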
# eIF4H FP inh retest = second read-out of eIF4H FP inh, no call of its own (marks repeat the call); inhibition, %; compound at 20 µM; confirmation average;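 mean of two retest wells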
# PABP FP inh retest = further read-out of PABP FP inh, marked with its call; inhibition, %; compound at 20 µM; confirmation repeats;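 mean of two retest wells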
# MT1-MMP act inh RFP = further read-out of MT1-MMP act inh, marked with its call; RFP signal change, %; measured here: RFP expression control read;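 0 = vehicle wells; hits needed this value within 50% of zero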
# Numbers without * were called inactive; i = inactive; · = no result given.
SMILES,MT1-MMP act inh,MT1-MMP act inh RFP,Rce1 inh,CSC inhib,PABP FP inh,HIV Env fusion,UUG fidelity,eIF4H FP inh,others
COc1cc2c(cc1NC(=O)Nc1ccc(F)cc1)oc1ccccc12,11,2,i,-19,11*,18,-14,92*,eIF4H FP inh retest=70*;PABP FP inh retest=67*
O=C(CN1CCOCC1)Nc1ccc(Oc2ccccc2)cc1,3,-4,i,6,-12,-10,4,-14,
O=C(Cc1sc(Nc2ccccc2)nc1-c1ccccc1)NCc1ccccn1,-6,4,i,·,5,-22,·,24,
COc1cc([N+](=O)[O-])ccc1NC(=S)NC(=O)CC(C)(C)C,-7,-5,i,1,6,-7,·,-9,
CN(C)S(=O)(=O)c1cccc(NC(=O)COC(=O)c2cc(=O)[nH]c(=O)[nH]2)c1,0,3,i,-7,-6,-42,·,5,
CCOc1ccc(C(=O)CCC(=O)NCC(=O)OCc2ccccc2)cc1OCC,-2,1,i,-15,2,4,-11,-6,
O=C(CSc1nc2ccccc2s1)N/N=C/c1cc([N+](=O)[O-])ccc1O,4,0,i,10,-11,-8,·,15,
O=C1c2ccccc2C(=O)N1CCCCCCc1ccccc1,4,0,·,19,·,16,-19,·,
Cc1cccc(-c2nsc(SCC(=O)NCc3ccc4c(c3)OCO4)n2)c1,0,0,i,12,-13,0,·,-10,
Cn1c(N)c(C(=O)COC(=O)c2cc(C(F)(F)F)nc3ccccc23)c(=O)n(Cc2ccccc2)c1=O,·,·,·,1,-5,·,·,0,
CC(=C/c1ccccc1)/C=N/Nc1nc(N2CCCCC2)nc(N2CCCCC2)n1,1,-5,i,14,25,16,-13,7,
COc1ccc(C(=O)c2ccc(OC)c(N)c2)cc1N,0,-9,i,19,4,32,-16,-2,
COc1ccc(C(=O)Nc2cc(OC)nc(OC)n2)cc1,4,2,i,-6,-8,·,-30,-7,
Cn1c(CSc2nc3ccccc3s2)nnc1SCC(=O)NCc1ccccn1,-4,2,i,16,26,·,3,4,
CC(SC(=S)N1CCCC1)C(=O)O (stereo not given),5,4,i,-11,-6,20,·,-15,
O=C1CCCc2c1cc(C(=O)O)c(=O)n2-c1ccccc1,-1,5,i,0,-2,-20,-30,-10,
CC(C)N(C)CCOC(=O)c1ccc2c(c1)OCCO2,-3,4,i,1,3,-67,1,-10,
CCOC(=O)N1CCN(S(=O)(=O)N2CCCC(C(=O)NCCCN3CCCCC3)C2)CC1 (stereo not given),0,3,i,0,·,7,10,·,
COc1cc(CNc2nc(C)c([N+](=O)[O-])c(C)c2C#N)cc(OC)c1,0,-4,i,-13,0,·,6,-1,
Cc1nn(-c2nc3ccccc3[nH]2)c(N)c1-c1ccc(Cl)cc1,1,-2,i,33,-9,·,-24,15,
CCOC(=O)N1CCN(c2cc(C)nc3nc(C)nn23)CC1,1,5,i,5,3,-8,-11,2,
COC(=O)CN=Cc1c(O)n(-c2ccc(Cl)cn2)c(=O)c2ccccc12,1,4,i,-15,12,7,·,-6,
CC(C)c1ccc(OCC(=O)N(c2ccccn2)C2CCCCC2)cc1,-4,-3,i,54,14,21,·,8,
CC(C)(C)NC(=O)CSc1nc(-c2ccc(F)cc2)cs1,2,-7,i,3,-7,-40,·,-8,
O=C(NC1CCCC1)C(c1ccccn1)N(C(=O)c1csnn1)c1ccccc1F (stereo not given),-1,-1,i,-7,0,17,8,0,
Cc1cc(NC(=O)c2cccc(N3C(=O)CCC3=O)c2)no1,2,-1,i,5,-7,-7,-19,-5,
Clc1ccc(-c2cn3cccnc3n2)cc1Cl,45,59,i,-6,78*,-83,-15,71*,
CN(C)c1nc(N)nc(/C(C#N)=C/C2CC3C=CC2C3)n1 (stereo not given),-14,5,i,-22,3,-15,-14,-3,
CC(=O)Nc1ccc(/C(C)=N\NC(=O)c2ccc(-c3ccccc3)cc2)cc1,·,·,·,29,-5,·,·,2,
CN(C)CCCNC1=CC(=O)OC12CCCCC2,4,6,i,-13,8,·,-16,0,
O=C1C2C3C=CC(C2C(=O)N1c1cccc(O)c1)C1C2C(=O)N(c4cccc(O)c4)C(=O)C2C31 (stereo not given),2,2,i,-4,5,-5,-18,20,
CCOc1ccc(/C=C2\SC(=S)N(C(C(=O)O)c3ccccc3)C2=O)cc1OC (stereo not given),-2,0,i,6,4,4,-7,-4,
O=[N+]([O-])c1ccc(N2CCCCC2)nc1,2,2,i,11,·,-31,-17,·,
Cc1ccc2[nH]cc(C(=O)CN3CCC4(CC3)OCCO4)c2c1,-7,1,i,3,-4,-43,-2,-1,
Cc1cc(C(F)F)n2nc(C(=O)Nc3ccccc3F)nc2n1,-1,-1,i,-14,6,·,-11,-5,
COC(=O)c1cc(NC(=O)COC(=O)C2COc3ccccc3O2)cc(C(=O)OC)c1 (stereo not given),5,7,·,-6,·,-5,-7,·,

# A draw from above in order of length of the SMILES, highest first.
SMILES,MT1-MMP act inh,MT1-MMP act inh RFP,Rce1 inh,CSC inhib,PABP FP inh,HIV Env fusion,UUG fidelity,eIF4H FP inh,others
O=C1C2C3C=CC(C2C(=O)N1c1cccc(O)c1)C1C2C(=O)N(c4cccc(O)c4)C(=O)C2C31 (stereo not given),2,2,i,-4,5,-5,-18,20,
CCOC(=O)N1CCN(S(=O)(=O)N2CCCC(C(=O)NCCCN3CCCCC3)C2)CC1 (stereo not given),0,3,i,0,·,7,10,·,
COC(=O)c1cc(NC(=O)COC(=O)C2COc3ccccc3O2)cc(C(=O)OC)c1 (stereo not given),5,7,·,-6,·,-5,-7,·,
CCOc1ccc(/C=C2\SC(=S)N(C(C(=O)O)c3ccccc3)C2=O)cc1OC (stereo not given),-2,0,i,6,4,4,-7,-4,
CC(=O)Nc1ccc(/C(C)=N\NC(=O)c2ccc(-c3ccccc3)cc2)cc1,·,·,·,29,-5,·,·,2,
COc1cc(CNc2nc(C)c([N+](=O)[O-])c(C)c2C#N)cc(OC)c1,0,-4,i,-13,0,·,6,-1,
O=C(NC1CCCC1)C(c1ccccn1)N(C(=O)c1csnn1)c1ccccc1F (stereo not given),-1,-1,i,-7,0,17,8,0,
COC(=O)CN=Cc1c(O)n(-c2ccc(Cl)cn2)c(=O)c2ccccc12,1,4,i,-15,12,7,·,-6,
Cc1nn(-c2nc3ccccc3[nH]2)c(N)c1-c1ccc(Cl)cc1,1,-2,i,33,-9,·,-24,15,
Cc1ccc2[nH]cc(C(=O)CN3CCC4(CC3)OCCO4)c2c1,-7,1,i,3,-4,-43,-2,-1,
CN(C)c1nc(N)nc(/C(C#N)=C/C2CC3C=CC2C3)n1 (stereo not given),-14,5,i,-22,3,-15,-14,-3,
Cc1cc(NC(=O)c2cccc(N3C(=O)CCC3=O)c2)no1,2,-1,i,5,-7,-7,-19,-5,
Cc1cc(C(F)F)n2nc(C(=O)Nc3ccccc3F)nc2n1,-1,-1,i,-14,6,·,-11,-5,
CC(C)(C)NC(=O)CSc1nc(-c2ccc(F)cc2)cs1,2,-7,i,3,-7,-40,·,-8,
CC(C)N(C)CCOC(=O)c1ccc2c(c1)OCCO2,-3,4,i,1,3,-67,1,-10,
O=[N+]([O-])c1ccc(N2CCCCC2)nc1,2,2,i,11,·,-31,-17,·,
Clc1ccc(-c2cn3cccnc3n2)cc1Cl,45,59,i,-6,78*,-83,-15,71*,

# Other results:
SMILES,MT1-MMP act inh,MT1-MMP act inh RFP,Rce1 inh,CSC inhib,PABP FP inh,HIV Env fusion,UUG fidelity,eIF4H FP inh,others
CCOc1ccccc1NC(=O)c1oc2ccccc2c1NC(=O)C1CCCO1 (stereo not given),-1,0,i,23,5,-32,-7,1,
COc1cc(C(=O)Nc2c(C)cc(C)cc2C)c([N+](=O)[O-])cc1OC,-1,-4,i,5,-6,-2,·,-7,
CCN(CC(=O)Nc1cccc(F)c1)CC(=O)Nc1ccc2c(c1)OCCO2,4,1,·,·,·,-6,-13,·,
O=c1cc(CO)oc2ccccc12,-3,1,·,-11,·,1,-4,·,
COc1cc(-c2cc3nc(C)c(C)c(=O)n3[nH]2)cc(OC)c1OC,18,0,i,5,-5,-123,-9,-5,
CCc1ccc(S(=O)(=O)N2CCN(Cc3ccco3)CC2)cc1,-2,-1,i,-18,0,13,-14,-1,
CCn1cc(C(=O)NC2CCCc3c2cnn3-c2cccc(C)c2C)cn1 (stereo not given),5,-30,·,-2,1,57*,4,-8,
O=C(c1ccoc1)N1CCC2(CC1)Oc1ccc(F)cc1C(=O)C21CC(c2cccnc2)=NO1 (stereo not given),-4,-6,i,8,18,20,-16,0,
CC1=C(C(=O)OC2CCC(C)CC2)C(c2ccc(O)c([N+](=O)[O-])c2)NC(=O)N1 (stereo not given),3,-4,i,-12,2,16,-6,5,
Cc1ccc(S(=O)(=O)N2CCOCC2)cc1C(=O)OCC(=O)N1CCCCC1,-2,1,·,-17,·,·,23,·,
CN(c1cc(Cl)c2c(c1)OCO2)c1cc2c(c3c1ccn3C)C1CCC2C1 (stereo not given),1,-2,·,·,·,8,-16,·,
COc1cc(C(=O)NCc2nnc(SCC(=O)c3ccccc3)o2)cc(OC)c1OC,-4,0,i,-5,7,-1,-7,-7,
Cc1ccc(C(=O)Nc2ccncc2)c(Cl)c1,0,-11,i,-18,-2,33,-10,-9,
[O-]/[N+](=C\c1ccco1)c1ccc(Cl)cc1,-2,0,i,-8,5,-60,-19,-6,
Cc1cc(NC(=O)COC(=O)c2ccc(C)c(C)c2)no1,-3,-1,·,-8,·,-13,-11,·,
Nc1cc(N)nc(SCc2cccc(F)c2)n1,2,3,i,-3,2,-11,-17,3,
CCc1nc(C)c(C#N)c2cc(OC)c(OC)cc12,-8,-7,i,-5,14,-314,-9,1,
O=C(CNc1n[nH]c(=O)[nH]c1=O)N/N=C/c1ccccc1,·,·,i,-2,14,6,·,-1,
CCOc1ccc(-c2nnn(CC(=O)c3cc(OC)ccc3OC)n2)cc1,3,-5,i,28,-7,-77,-20,-6,
CCOc1ccc(NS(=O)(=O)c2cc3c(cc2C)N(C)CCO3)cc1,-3,-9,i,5,2,6,3,-5,
CC1(C)C2CC=C(/C=N/NC(=O)C(N)=O)C1C2 (stereo not given),-2,-1,i,-13,5,-12,-18,-1,
